# High-throughput results deposited in PubChem by National Center for Advancing Translational Sciences (NCATS).
# Rango-impB inh – inhibitors of Rango-importin beta complex formation | Q14974 | Rango CFP/YFP FRET sensor + importin beta, 45 min | Potency, µM (series often up to 92.2 µM), inactives show top-dose inhibition of complex formation | hit rate 0.031% among 340,000 | AID 540263; active = rising FRET ratio curve, often small or poorly fitted; inconclusive = mostly compound fluorescence or quenching in the first reads; inactive = flat curves in all reads;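 also: potency is read from the fitted curve at half-maximal effect; 0% = DMSO wells and 100% = buffer wells lacking importin beta; nearly all actives have a fitted effect of over 15% in size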
#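 Inhibition scored from the CFP 486 nm/YFP 530 nm FRET ratio 45 min after adding 0.125 microM importin beta to 50 nM Rango biosensor preincubated 5 min with compound (room temperature, PBS with DTT, Tween-20, BSA). No-importin wells as positive control.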
# miR-21 reporter – raises the signal of a miR-21 reporter | 340,000 tested, under 10 active | HeLa miR-21 FLuc reporter, luciferase, 48 h | Potency, µM (series often up to 38.3 µM), for inactives: top-dose reporter change, positive = more light; active = well fitted rising curve with a large enough effect; inconclusive = small, poorly fitted or top-dose-only effect; inactive = no such curve, though single readings can be large or run the other way;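 also: % of control where 0% means no effect; miR-21 action dims this reporter so a rising signal means less miR-21 action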
#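 Luminescence from a firefly luciferase reporter carrying a miR-21 binding site downstream, stably expressed under a CMV promoter in HeLa cells that make miR-21 endogenously, reports miRNA modulation after 48 h compound exposure up to approximately 40uM final.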
# Rango dissoc inh – inhibition of RanGTP-driven Rango-importin beta dissociation. Biochemical FRET Rango-importin beta, RanGTP-induced dissociation. O95149+P62826. hit rate 0.071% among 340,000. AID 540253. Potency, µM (doses to about 46.1 µM), for the others: top-dose activity change, negative = inhibition; active means falling FRET ratio curve, often poorly fitted, with flat reads before Ran was added; inconclusive means other falling curves, or compound fluorescence or quenching; inactive means flat or rising ratio curve;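 also: potency is read from the fitted curve at half-maximal effect; % of control where 0% means no effect; nearly all actives have a fitted effect of over 45% in size; -100% = wells without RanGTP and RCC1; the record marks most hits as doubtful in a second field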
#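 Recombinant Rango FRET biosensor (EYFP–snurportin 1 IBB–cerulean CFP10) at 0.1 uM premixed with 0.25 uM importin beta in PBS, 1 mM DTT, 0.02% Tween-20, 0.1% BSA. Compound added 5 min; RanGTP-RCC1 (0.6 uM Ran, 2 mM GTP, 0.2 uM RCC1) then triggers release, read at 45 min.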
# GLA inh pH 4.5 – alpha-galactosidase A (human) inhibition, pH 4.5 | activity change, negative = inhibition, % at 105 µM | P06280 | purified enzyme, 4-MU-alpha-Gal fluorescence, pH 4.5 | 230,000 tested, under 10 active; inconclusive = small, poorly fitted or top-dose-only inhibition, or a rising curve; inactive = flat fitted curve, though single readings scatter; no compound was filed as active;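 also: 0% = full activity with enzyme and -100% = basal without enzyme; dose as in the result columns while the protocol names 77 µM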
# Target sequence (P06280 whole entry, looked up): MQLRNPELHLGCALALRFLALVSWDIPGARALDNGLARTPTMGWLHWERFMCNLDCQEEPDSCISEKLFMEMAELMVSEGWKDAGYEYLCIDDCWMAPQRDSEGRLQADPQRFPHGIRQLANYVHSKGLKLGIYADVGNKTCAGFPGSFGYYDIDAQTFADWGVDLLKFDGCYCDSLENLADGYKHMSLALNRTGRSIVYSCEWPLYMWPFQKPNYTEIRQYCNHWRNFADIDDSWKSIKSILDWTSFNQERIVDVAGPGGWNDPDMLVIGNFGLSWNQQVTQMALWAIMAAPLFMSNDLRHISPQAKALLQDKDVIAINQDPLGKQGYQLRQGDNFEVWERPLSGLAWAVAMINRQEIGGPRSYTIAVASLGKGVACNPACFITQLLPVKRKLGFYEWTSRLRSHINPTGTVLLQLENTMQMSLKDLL
# Numbers without * were called inactive; ? = inconclusive; . = not tested or not shown. This is a subset (hit frequency here may not be typical).
# Second line of a record: Rango-impB inh, miR-21 reporter, Rango dissoc inh, GLA inh pH 4.5
O=C(O)c1ccccc1Nc1ccc([N+](=O)[O-])cc1
    ?, 6.9%, ?, -5.8
NC(=O)c1ccsc1NC(=O)COc1ccccc1
    -0.4%, -57.8%, -15.2%, -4.3
COc1cc(-c2nc3ccccn3c2/N=C/c2cc(OC)c(O)cc2Cl)ccc1O
    ?, -4.5%, -17.0%, -15.0
CC(=O)c1cccc(NC(=O)Cc2coc3cc4c(cc23)CCC4)c1
    -6.3%, 6.5%, 5.5%, -7.8
O=C1CCC(C(=O)N2CCCO2)CN1Cc1cccc(C(F)(F)F)c1 (centres undefined)
    0.4%, -33.0%, -4.0%, .
CC(C)=CC(=O)OCC(=O)Nc1cc(C)ccc1C
    0.5%, -1.9%, -9.6%, -1.2
CC(=O)NC1C2CN3CCN(C2)CC1(Cc1ccccc1)C3 (centres undefined)
    5.8%, -1.5%, -8.0%, -2.4
N#Cc1c(NC(=O)CSc2nnc(-c3ccncc3)n2CC2CCCO2)sc2c1CCCC2 (centres undefined)
    2.3%, -19.2%, -8.6%, 6.9
CN(C)S(=O)(=O)c1cccc(NC(=O)COc2cccc3ccccc23)c1
    0.0%, ., -0.2%, .
COc1ccc(CCc2nnc(CCC(=O)NCc3cnc4ccccn34)o2)cc1
    0.1%, -4.8%, 4.9%, 5.3
O=C(c1ccc(S(=O)(=O)NCC2CCCO2)cc1)N1CCN(c2cccc(Cl)c2)CC1 (centres undefined)
    -1.6%, 16.6%, ?, -5.8
Cc1ccc(S(=O)(=O)N2CCCCC2)cc1NC(=O)c1ccc2c(c1)OCO2
    4.7%, -0.9%, 4.0%, 2.1
COc1ccc(-c2noc(N3CCC(C(=O)NCc4ccc(Cl)cc4)CC3)n2)cc1
    1.5%, 0.0%, -14.6%, .
O=C(CN1C(=O)C2CCCCC2C1=O)Nc1cc(C(F)(F)F)ccc1N1CCCC1 (centres undefined)
    0.0%, ., -1.0%, .
O=C(Nc1ccc(S(=O)(=O)Nc2ncccn2)cc1)C12CC3CC(CC(C3)C1)C2
    -0.6%, -16.9%, 5.1%, .

# Among those listed so far, these have fluorine.
# Second line of a record: Rango-impB inh, miR-21 reporter, Rango dissoc inh, GLA inh pH 4.5
O=C1CCC(C(=O)N2CCCO2)CN1Cc1cccc(C(F)(F)F)c1 (centres undefined)
    0.4%, -33.0%, -4.0%, .
O=C(CN1C(=O)C2CCCCC2C1=O)Nc1cc(C(F)(F)F)ccc1N1CCCC1 (centres undefined)
    0.0%, ., -1.0%, .

# Later entries
# Second line of a record: Rango-impB inh, miR-21 reporter, Rango dissoc inh, GLA inh pH 4.5
CCCCn1c(N)c(N(CCOC)C(=O)CN(C)S(=O)(=O)c2ccc(C)cc2)c(=O)[nH]c1=O
    3.2%, ., 0.8%, .
Cc1ccc(S(=O)(=O)NCC(C)n2cncn2)cc1C (centres undefined)
    0.0%, -0.9%, -13.1%, .
COc1ccccc1NC(=O)N1CCCC1C(=O)NCc1ccc2c(c1)OCO2 (centres undefined)
    -1.9%, 1.2%, 13.4%, 10.8
Cc1ccc(N2C(=O)CC(c3c[nH]c4ccccc34)C2=O)cc1 (centres undefined)
    -3.2%, -9.4%, 14.6%, 5.1
CC(C)OCc1c(C(=O)Nc2nccs2)oc2ccccc12
    -5.9%, 6.0%, -19.0%, -12.5
COc1ccccc1NC(=O)c1ccc(N)cc1
    4.4%, -35.9%, 8.5%, -0.9
COc1ccc(OC)c(NC(=O)COC(=O)Cc2ccsc2)c1
    0.8%, ., ?, .
O=C(Nc1ccc(F)cc1)C1CCCCC1
    2.3%, -11.7%, 1.8%, 5.5
CCOC(=O)C1Nc2ccccc2C2C(O)C(O)CC12 (centres undefined)
    ?, ., ?, .
CCCNC(=S)Nc1cccc(C(F)(F)F)c1
    -2.5%, 13.8%, ?, 1.8
Cc1cc(NS(=O)(=O)c2ccc(NC(=O)NC3CCCCC3)cc2)no1
    -0.6%, -10.0%, 5.4%, -1.5
CCNC(=S)N1CCN(c2ccccn2)CC1
    3.5%, -1.4%, 2.7%, -21.4
CC1CN(C(=O)COc2ccc3ccccc3c2Br)CC(C)O1 (centres undefined)
    3.0%, 2.9%, 7.9%, .
CCOc1ccccc1NC(=O)COC(=O)Cc1cccs1
    2.0%, -0.1%, -12.8%, .
Cc1ccc(C(CC(=O)NCCCN(C)C)c2ccc(OC(C)C)cc2)cc1 (centres undefined)
    -0.2%, -0.3%, -0.3%, -5.7

# (cont.)
# Second line of a record: Rango-impB inh, miR-21 reporter, Rango dissoc inh, GLA inh pH 4.5
Cc1ccnc(SCc2cc(=O)c(OC(=O)c3cccs3)co2)n1
    -4.2%, -9.0%, -3.7%, 3.1
CC1CCCC(NC(=O)C2CCN(S(=O)(=O)N3CCCCC3)CC2)C1C (centres undefined)
    0.0%, -1.0%, 0.6%, -1.5
NN=C1C(=O)c2cccc3cccc1c23
    5.3%, ., 0.5%, .
COc1nnc(-c2ccc(N3CCCCC3)c(NC(=O)COc3ccccc3)c2)c2ccccc12
    -1.0%, ., -8.2%, .
Cn1c(=O)c2c(nc(CN3CCN(C(c4ccccc4)c4ccccc4)CC3)n2CC(N)=O)n(C)c1=O
    -3.2%, -1.2%, 2.7%, -0.6
OCC(O)C(O)C(O)C(O)C1NCCS1 (centres undefined)
    0.1%, 1.6%, 11.8%, -6.0
CCO/C=N/c1c(C#N)c2c(c(=S)n1C)COC(C)(C)C2
    1.2%, -5.2%, 12.5%, -15.7
C=CCNC(=O)NC(=O)COC(=O)[C@H](C)NS(=O)(=O)c1c(C)c(C)cc(C)c1C
    -2.5%, 6.0%, 39.2%, 4.3
Cc1c(Cl)cccc1NCC(=O)Nc1ccc(Cl)cc1F
    4.8%, -22.3%, -2.0%, -13.0
CSc1nnc2c(n1)OC=Nc1ccccc1-2
    0.3%, -2.6%, 18.0%, 1.4
Cc1ccc(S(=O)(=O)c2nc(-c3ccccc3Br)oc2N(C)C)cc1
    0.1%, ., -12.3%, .
O=C(NCCO)c1ccc2nc(-c3ccco3)c(-c3ccco3)nc2c1
    ?, 15.5%, ?, -0.2
CCOc1ccc(OCc2ccc(C(=O)N3CCCC3)o2)cc1
    -1.2%, -25.5%, -12.0%, 2.1
CC1CCCCC1NC(=O)/C(C#N)=C/c1ccc(OCC(N)=O)cc1 (centres undefined)
    -2.5%, 1.7%, 1.6%, 2.1
COC(=O)c1ccc(/C=C/C(=O)OCC(=O)Nc2cc(C)on2)cc1
    -1.6%, ., 10.6%, .

# More results follow.
# Second line of a record: Rango-impB inh, miR-21 reporter, Rango dissoc inh, GLA inh pH 4.5
Cc1nn(-c2ncc(C(F)(F)F)cc2Cl)c(=O)n1-c1c(F)cccc1F
    -2.0%, -11.2%, -11.0%, 2.4
COc1cccc(N2CCN(Cc3nc(N)nc(Nc4ccccc4)n3)CC2)c1
    0.4%, -0.4%, 1.3%, 3.3
CC(C)(C)c1csc(NC(=O)c2ccc(Br)o2)n1
    1.4%, -12.3%, -7.1%, .
Cc1cc(C)n2cc(CSCc3ccco3)nc2n1
    -0.7%, -16.0%, 9.2%, 2.3
CCCNC(=O)CCNC(=O)[C@H](O)C(C)(C)CO
    -0.6%, ., -3.0%, .
O=C(O)COc1ccccc1/C=N/NC(=O)CN1CCN(Cc2ccccc2Cl)CC1
    2.5%, -2.2%, 3.4%, -4.8
COC(=O)Cn1ncn2c(cc3oc(C)cc32)c1=O
    -0.4%, -31.2%, 2.2%, 2.1
Cc1cccc(NS(=O)(=O)c2ccc(-c3cnc(C4CC4)o3)cc2)c1C
    3.3%, 27.2%, -1.4%, .
Cc1cc(C)n(-c2ccc(NC(=O)C3CCCCN3C(=O)c3occc3C)cc2)n1 (centres undefined)
    -2.7%, -0.6%, -1.2%, .
COc1cc(C(=O)Oc2cccc(C)c2)cc(OC)c1OC
    -3.8%, -4.2%, 11.5%, 0.8
CCC(=O)Nc1ccc2nc(SCC(=O)N3CCCC3)sc2c1
    0.0%, -20.3%, 1.4%, 6.9
CCNc1nc(NC(C)C)nc(OCCOC(=O)Nc2ccccc2)n1
    -1.0%, -28.9%, -4.1%, -4.3
COc1ccc(-c2cccc(NS(=O)(=O)c3ccccc3[N+](=O)[O-])c2)nn1
    -1.0%, ., 8.6%, .
CC(=O)Nc1cc(NC(C)=O)cc(C(=O)OCC(=O)c2ccc3c(c2)OCO3)c1
    -0.4%, ., -21.0%, .
COc1cc(/C=C2\NC(=S)NC2=O)ccc1OCc1cccc(C(=O)O)c1
    3.0%, -55.0%, 10.0%, .

# Other structures
# Second line of a record: Rango-impB inh, miR-21 reporter, Rango dissoc inh, GLA inh pH 4.5
CC(=O)NCCCC(=O)NC(CCC(=O)OCc1ccccc1)C(=O)OCc1ccccc1 (centres undefined)
    -0.1%, 2.9%, -1.0%, .
Cc1cc(Nc2ccccc2)nc2cc(O)ccc12
    ?, -65.9%, 7.31µM*, 10.6
Nc1c(S(=O)(=O)c2cccc(Cl)c2)c2nc3ccccc3nc2n1/N=C/c1ccc(O)c(O)c1
    ., 26.2%, ., -4.5
Nc1ccccc1C(=O)Nc1cccc2ccccc12
    2.0%, -56.9%, 10.9%, .
CCN(CC)CCCNC(=S)N1CCN(c2nc(-c3ccc(F)cc3)cs2)CC1
    0.1%, 21.3%, -9.0%, .
COc1ccc(S(=O)(=O)Nc2ccc3c(c2)OCO3)cc1C
    -0.5%, -3.2%, 4.0%, 8.3
COc1ccc(-c2n[nH]c(C)c2-c2ccc(OC)c(OC)c2)c(O)c1
    1.1%, 18.2%, -6.7%, 7.7
CN(CCC#N)C(=O)CSc1nc2scc(-c3ccccc3)c2c(=O)[nH]1
    -6.9%, -2.9%, -1.7%, 0.2
O=C(NCc1ccccc1)[C@]1(C(F)(F)F)C[C@H](CCc2ccccc2)CCCO1
    2.8%, ., 21.5%, .
O=C(CNC(=O)c1ccco1)Nc1ccc2c(c1)OCCO2
    -2.8%, ., -0.4%, .
CC12CCC(C(=O)N(CCCCN3CCN(c4ccccn4)CC3)C1=O)C2(C)C (centres undefined)
    3.4%, 0.7%, 11.5%, .
COc1ccc(CNC(=O)c2ccc(-c3ccccc3)cc2)cc1
    0.4%, -52.3%, 0.4%, -1.6
COc1cc(/C=C/C(=O)O)cc(S(=O)(=O)Nc2ccc3nc(SC)sc3c2)c1OC
    -1.1%, -1.0%, -4.5%, 1.2
O=[N+]([O-])c1ccc(S(=O)(=O)N2CCC3(CC2)OCCN3S(=O)(=O)c2cccs2)cc1
    3.1%, ., 1.9%, .
COc1ccc(C)cc1-n1nnnc1SCC(=O)NNC(=O)c1ccc([N+](=O)[O-])cc1
    2.3%, -1.8%, 11.3%, -3.0

# Next section:
# Second line of a record: Rango-impB inh, miR-21 reporter, Rango dissoc inh, GLA inh pH 4.5
CC(C(=O)O)N1C(=O)C2C3CC(C2C1=O)C1C(c2ccccc2)c2sc(=O)[nH]c2SC31 (centres undefined)
    ?, 2.3%, 23.1µM*, 8.3
Cn1nnnc1P(=O)(c1ccccc1)c1ccccc1
    -4.4%, -5.4%, -23.5%, 8.4
CC(=O)N1CCC(C(=O)Nc2ccc(S(=O)(=O)N3CCCCC3)cc2)CC1
    0.0%, 1.7%, ?, .
C#CC(C)(C)NC(=O)c1ccc(-c2ccccc2F)cc1
    1.2%, -64.5%, -10.2%, -1.3
COc1ccc2[nH]c3c(c2c1)CCNC3(C)CCc1ccc(Cl)nc1 (centres undefined)
    -0.6%, -20.1%, -0.2%, .
O=C(NCCCNC(=O)c1ccc(Cl)cc1Cl)c1cnccn1
    0.1%, -1.8%, -6.0%, .
CC1CC(C)CN(C(=O)CSc2ccsc2[N+](=O)[O-])C1 (centres undefined)
    3.7%, -1.7%, 2.1%, -0.6
CNC(=S)NCc1ccc2[nH]c3c(c2c1)CCCC3
    -2.5%, -4.1%, -3.3%, -9.4
Cc1cccc(-n2ncc3c(NCc4cccs4)ncnc32)c1
    -3.4%, -37.0%, -0.7%, 2.7
COc1ccccc1CNC(=O)CN1C(=O)NC2(CCCCCCC2)C1=O
    2.7%, ., -5.8%, .
O=C(Nc1ccc(F)c([N+](=O)[O-])c1)c1ccc2c(c1)C(=O)OC2=O
    ., -3.4%, ., -8.7
